AF4-AF9 inh – blocks AF4 peptide binding to human AF9; AID 651704; P42568; AlphaScreen, biotin-AF4 peptide binding to FLAG-AF9; inhibition, % at 10 µM; hit rate 0.47% among 350,000;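 active = every replicate reaching a set inhibition limit, whatever the replicate mean, cut at about 25% in these data; inconclusive = mean inhibition reaches that limit but some replicates miss it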;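 note: 0% = plate neutral control median and 100% = total signal loss; the record names both 10 and 1 µM as test concentration; the first replicate is given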
Target sequence (P42568 whole entry, looked up): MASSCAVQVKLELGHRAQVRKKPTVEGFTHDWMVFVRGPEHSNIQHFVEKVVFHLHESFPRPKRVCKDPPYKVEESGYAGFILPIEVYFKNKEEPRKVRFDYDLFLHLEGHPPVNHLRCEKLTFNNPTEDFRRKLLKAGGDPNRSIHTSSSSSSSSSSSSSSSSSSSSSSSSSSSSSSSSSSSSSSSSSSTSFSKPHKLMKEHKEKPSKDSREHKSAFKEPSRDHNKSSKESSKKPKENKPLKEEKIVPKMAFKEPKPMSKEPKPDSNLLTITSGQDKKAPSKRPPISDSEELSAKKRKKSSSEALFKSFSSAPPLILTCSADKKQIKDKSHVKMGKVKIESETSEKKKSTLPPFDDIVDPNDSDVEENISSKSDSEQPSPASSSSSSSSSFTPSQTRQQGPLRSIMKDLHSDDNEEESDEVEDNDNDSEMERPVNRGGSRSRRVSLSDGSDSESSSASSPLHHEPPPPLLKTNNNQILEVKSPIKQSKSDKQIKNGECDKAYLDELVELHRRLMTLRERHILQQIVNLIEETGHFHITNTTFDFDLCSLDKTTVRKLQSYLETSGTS
FGF22 binding – shifts melting point of recombinant human FGF22 | AID 651658 | Q9HCT0 | hit rate 1.5% among 340,000 | recombinant FGF22 thermal shift, SYPRO orange fluorescence; percent of sucrose octasulfate shift, DMSO zero | calls only at 9.99 µM;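 active = melting point raised past a set limit in the mean and every replicate; inconclusive = no clear call; three in four hits are not shown here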
Target sequence (Q9HCT0 whole entry, looked up): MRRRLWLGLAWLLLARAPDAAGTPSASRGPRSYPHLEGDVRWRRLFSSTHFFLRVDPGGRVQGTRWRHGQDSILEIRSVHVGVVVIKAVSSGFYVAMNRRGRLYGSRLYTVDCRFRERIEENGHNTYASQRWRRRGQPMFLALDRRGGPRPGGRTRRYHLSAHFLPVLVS
rRNA inh HTS – inhibits bacterial ribosomal RNA function over humanized ribosomes; hit rate 1.6% among 350,000; GFP signal change (wild-type ribosome), % (concentration not given with the values); E. coli WT GFP vs humanized-ribosome RFP mutants, fluorescence, 24 h; stronger effect = lower value; DMSO median 0, no signal -100;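 active = significant combined selectivity score with lowered wild-type GFP, culture density cut under 30%, mutant RFP and density less affected; inactive = any of these conditions unmet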; note: one replicate is shown; some compounds called inactive have numbers as strong as hits
rRNA inh HTS OD600 – recorded beside rRNA inh HTS, whose call it bears; OD600 change, %; measured here: OD600 growth;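 optical density of the mix in the first replicate; 0 = DMSO median and -100 = no signal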
rRNA inh HTS RFP – recorded beside rRNA inh HTS, whose call it bears; RFP signal change, %; measured here: RFP humanized mutant strains;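 first replicate; 0 = DMSO median and -100 = no signal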
The depositor's hits bear a star; i = inactive; ? = inconclusive; · = no result given; & = joins results of further samples. This is a subset; count on the stated rates, not on these rows.

Results follow in this order: rRNA inh HTS OD600	rRNA inh HTS	AF4-AF9 inh	FGF22 binding	rRNA inh HTS RFP
Cc1noc(C)c1S(=O)(=O)Nc1ccc2c(c1)C(=O)N([C@@H](C)CO)C[C@@H](C)[C@H](CN(C)Cc1ccccc1)O2
  4.9	0.5	1.1	i	-2.9
CCCNC(=O)C1(C)CCN(Cc2csc(-c3ccc(Cl)cc3)n2)C1 (stereo not given)
  -19.0	-10.0	6.6	i	0.2
CC1(C(=O)NS(=O)(=O)c2ccccc2C(F)(F)F)CCN1C(=O)COc1ccc(Cl)cc1 (stereo not given)
  14.8	7.8	-7.1	i	0.3
C[C@H]1CN([C@@H](C)CO)C(=O)c2cc(NC(=O)Nc3ccccc3)ccc2O[C@@H]1CN(C)Cc1ccc(C(=O)O)cc1
  12.4	4.4	-1.0	i	0.6
CC(=O)N1C[C@H]2CON(C)[C@H]2C[C@H]1c1ccccc1
  15.3	10.0	-0.6	i	-2.9
COc1ccc(NC(=O)CN(C)C(=O)C2CC(=O)N(c3cccc4ccccc34)C2)cc1 (stereo not given)
  4.0	0.4	-0.7	i	0.0
Cc1ccc(-c2ccc3c(c2)O[C@@H](CN(C)C(=O)NC(C)C)[C@H](C)CN([C@H](C)CO)S3(=O)=O)cc1
  -8.1	-0.1	2.0	i	-2.6
C[C@@H]1CN([C@@H](C)CO)C(=O)c2cccc(NC(=O)Nc3cccc4ccccc34)c2O[C@H]1CN(C)S(=O)(=O)c1ccc(Cl)cc1
  13.6	2.8	1.5	i	-1.7
C[C@@H]1CN([C@@H](C)CO)S(=O)(=O)c2ccc(Br)cc2O[C@@H]1CN(C)C(=O)c1ccccn1
  7.8&-5.2	11.8&0.2	-3.5&-11.5	i	2.0&-1.9
c1cc(-c2ccsc2)n2ccnc2c1
  9.8	7.4	?	i	-0.5
C[C@H](CO)N1C[C@H](C)[C@@H](CN(C)C(=O)Nc2ccccc2)OCCCC[C@H](C)Oc2ccc(NS(=O)(=O)c3cccs3)cc2C1=O
  4.4	-1.9	1.3	i	5.5
C[C@@H]1CN([C@@H](C)CO)S(=O)(=O)c2ccc(C#CC3CC3)cc2O[C@H]1CN(C)C(=O)c1cnccn1
  -28.0	-17.8	-1.4	i	-5.2
C[C@H](CO)N1C[C@H](C)[C@@H](CN(C)Cc2ccc3c(c2)OCCN3C)OCc2ccccc2-c2c(n(C)c3ccccc23)C1=O
  -6.5	-0.9	30.8*	i	6.7
CCCC(=O)Nc1ccc2c(c1)C(=O)N(C)C[C@@H](OC)[C@@H](C)CN(Cc1nccs1)[C@@H](C)CO2
  -7.5	-4.0	0.9	i	-1.7
CC(C)NC(=O)N(C)C[C@@H]1Oc2ncc(-c3ccccc3F)cc2C(=O)N([C@H](C)CO)C[C@H]1C
  0.7	1.9	-1.5	i	-1.6
COc1ccc2c3c([nH]c2c1)[C@@H](CO)N(C(=O)c1ccc(F)cc1)CC31CN(S(=O)(=O)c2cccs2)C1
  -27.1	-6.3	-1.2	i	-0.5
CO[C@@H]1CN(C)C(=O)c2cc(NC(=O)C3CC3)ccc2OC[C@H](C)N(C(=O)C2CCCCC2)C[C@@H]1C
  -6.0	2.4	3.8	i	4.4
CCCc1nc2ccc(Br)cn2c1Cc1ccccc1OC
  -17.0	-3.7	1.0	i	1.9
CC(C)NC(=O)Nc1ccc2c(c1)C(=O)N([C@H](C)CO)C[C@H](C)[C@@H](CN(C)Cc1ccc(-c3ccccc3)cc1)O2
  -18.5	-1.8	6.0	i	9.4
O=C(N[C@H]1CC[C@@H](CCNS(=O)(=O)c2ccc(F)cc2)O[C@H]1CO)C1CCC1
  6.3	-0.8	-1.5	i	-0.1
COc1ccc(NC(=O)Nc2ccc3c(c2)CC(=O)N([C@H](C)CO)C[C@H](C)[C@@H](CN(C)C(=O)NC(C)C)O3)cc1
  6.7	2.3	-0.3	i	-0.7
CC(=O)C1=C(O)C(=O)N(c2cccc(C(=O)O)c2)C1c1ccccc1F (stereo not given)
  7.9	17.5	3.4	i	0.3
CCCNC(=O)C[C@@H]1CC[C@@H]2[C@@H](COc3ccc(NC(=O)c4cc(C)on4)cc3C(=O)N2C)O1
  3.9	2.2	-15.0	i	0.1
COc1ccc(C2/C=C\CN3CCC[C@H]3C(=O)N2Cc2ccc(F)cc2)cc1 (stereo not given in full)
  5.6	10.1	-0.4	i	3.4
COc1cccc(/C=C/C(=O)OCC(=O)Nc2nnc(-c3ccccc3)o2)c1OC
  -9.1	-5.2	-6.6	i	-0.1
C[C@H](CO)N1C[C@H](C)[C@H](CN(C)C(=O)CCCN(C)C)OCCCC[C@H](C)Oc2ccc(NC(=O)Nc3cccc4ccccc34)cc2C1=O
  -2.4	-0.7	12.8	i	0.8
COc1ccc(CCNC(=O)Nc2ccc3c(c2)c(=O)n(C)n3CC=C(C)C)cc1OC
  3.6	-2.4	0.8	i	-1.5
COc1ccc2c3c([nH]c2c1)[C@@H](CO)N(C(=O)C1CCOCC1)CC31CCN(Cc2nccs2)CC1
  0.9	-2.8	2.8	i	-0.7
COc1ccc(S(=O)(=O)N(C)C[C@@H]2Oc3ccc(NS(=O)(=O)c4cccs4)cc3CC(=O)N([C@H](C)CO)C[C@@H]2C)cc1
  -9.7	0.4	0.7	i	1.7
O=C1CCC2CN3CCc4c([nH]c5ccccc45)C3CC2C1 (stereo not given)
  21.8	16.1	1.2	i	25.6
COCC(=O)N1[C@H](CO)[C@H](c2ccccc2-c2cccc(F)c2)[C@@H]1C#N
  9.2	1.9	-0.9	i	3.9
Cc1ccc([C@H]2C[C@H](n3cc(COC(=O)c4ccccc4)nn3)[C@@H](O)CN2CC2CCCCC2)cc1
  3.8	22.7	-1.1	i	5.4
O=C(N[C@@H]1CC[C@@H](CCn2cc(-c3ccccn3)nn2)O[C@@H]1CO)c1ccncc1
  2.2	0.9	-0.7	i	-0.9
COc1ccc(CN2C[C@@H](CO)O[C@@H](n3cnc4c(NC5CCC5)ncnc43)C2)cc1
  -2.3	-2.6	17.8	i	-1.7
C[C@H](O)C#Cc1ccc2c(c1)O[C@@H](CN(C)C(=O)C1CCC1)[C@@H](C)CN([C@@H](C)CO)S2(=O)=O
  10.9	7.0	-13.0	i	0.0
CS(=O)(=O)N1CC2(C1)[C@H](c1ccccc1)[C@H](CO)N2CC1CC1
  5.9	3.7	0.4	i	0.3
CCC(=O)Nc1ccc2c(c1)C(=O)N(C)[C@@H]1CC[C@H](CC(=O)NCCc3ccncc3)O[C@H]1CO2
  3.8	4.1	-1.3	i	0.9
C[C@@H]1CN([C@H](C)CO)C(=O)c2cccc(NC(=O)c3nc4ccccc4s3)c2O[C@@H]1CN(C)Cc1ccc(C(=O)Nc2ccccc2N)cc1
  -11.5	-10.8	3.3	i	0.4
O=C1C(=C(I)I)c2ccccc2-c2ccccc21
  -74.3	-46.1	1.2	i	-10.4
Cc1ccc(S(=O)(=O)NN=CC2(c3ccccc3)CC2)cc1
  1.2	8.2	0.9	i	3.4

Only rRNA inh HTS OD600 and FGF22 binding (2 entries from above):
smiles	rRNA inh HTS OD600	FGF22 binding
COc1ccc(C2/C=C\CN3CCC[C@H]3C(=O)N2Cc2ccc(F)cc2)cc1 (stereo not given in full)	5.6	i
COc1cccc(/C=C/C(=O)OCC(=O)Nc2nnc(-c3ccccc3)o2)c1OC	-9.1	i

The results go on:
Results follow in this order: rRNA inh HTS OD600	rRNA inh HTS	AF4-AF9 inh	FGF22 binding	rRNA inh HTS RFP
CC(C)C[C@H]1CNC(=S)N1CC1CCCN1C[C@H](CC(C)C)N1C[C@H](Cc2ccccc2)N(CC2CCCCCC2)C1=S (stereo not given in full)
  12.0	14.2	1.6	i	2.1
C[C@H]1CN([C@@H](C)CO)C(=O)Cc2cc(NC(=O)Nc3ccccc3)ccc2O[C@H]1CN(C)Cc1ccc(-c2ccccc2)cc1
  -3.0	4.8	-0.6	i	-0.7
C[C@@H]1CCCCO[C@H](CN(C)C(=O)Cc2ccccc2)[C@@H](C)CN([C@@H](C)CO)C(=O)c2cc(NS(=O)(=O)c3ccccc3)ccc2O1
  -17.6	-4.8	1.1	i	4.7
C[C@@H]1CCCCO[C@@H](CN(C)C(=O)c2ccccc2)[C@H](C)CN([C@@H](C)CO)C(=O)c2cc(NC(=O)CCCN(C)C)ccc2O1
  9.3	-1.5	-4.5	i	0.0
C[C@@H]1CN([C@@H](C)CO)C(=O)c2cccc(NC(=O)CCCCCC(=O)Nc3ccccc3N)c2O[C@H]1CN(C)C
  -6.0	-2.0	-22.1	i	2.8
CC(C)Oc1cc(F)ccc1-c1cc(C(=O)NCCCn2ccnc2)[nH]n1
  -1.7	1.8	4.4	i	0.8
COc1ccc([C@H]2N[C@]3(CCCN(Cc4ccc(Br)cc4)C3=O)[C@H]3C(=O)N(C)C(=O)[C@@H]23)cc1
  -7.3	3.7	1.4	i	-4.3
COc1ccc(-c2ccc3c(c2)O[C@@H](CN(C)Cc2ccccc2C(=O)O)[C@H](C)CN([C@H](C)CO)S3(=O)=O)cc1
  -16.4	-1.7	5.9	i	-0.2
C[C@@H]1CN([C@H](C)CO)C(=O)c2cc(-c3cccc(F)c3)cnc2O[C@H]1CN(C)C(=O)c1cnccn1
  -1.1	1.3	-2.7	i	-2.2
Cc1cccc(C)c1NC(=O)C(c1ccnc2ccccc12)n1c(=O)c(-c2ccccc2)nc2ccccc21 (stereo not given)
  19.0	9.6	7.2	·	6.9
CC(C)C[C@H]1CNC(=O)C(=O)N1C[C@@H]1CCCN1C[C@H](CC(C)C)N1C[C@H](Cc2ccccc2)N(CCc2ccccc2)C(=O)C1=O
  4.1	-1.1	1.5	i	3.4
COCC(=O)Nc1ccc2c(c1)C(=O)N(C)C[C@@H](OC)[C@@H](C)CN(C(C)=O)[C@H](C)CO2
  6.0	2.0	-8.2	i	-1.1
COc1ccccc1S(=O)(=O)Nc1ccc2c(c1)C(=O)N(C)C[C@@H](OC)[C@H](C)CN[C@@H](C)CO2
  -2.6	2.8	-2.7	i	0.5
C[C@H]1CN([C@@H](C)CO)S(=O)(=O)c2ccc(C#Cc3ccccc3)cc2O[C@@H]1CN(C)S(=O)(=O)c1cn(C)cn1
  -16.4	-5.4	-0.8	i	12.3
C[C@H]1CN([C@@H](C)CO)C(=O)c2ccccc2-c2ccccc2CO[C@H]1CN(C)C(=O)Nc1ccnc(N2CCOCC2)c1
  7.0	-0.2	3.5	i	-0.6
COc1ccc(S(=O)(=O)N(C)C[C@@H]2Oc3ccc(NC(=O)CCC(F)(F)F)cc3CC(=O)N([C@H](C)CO)C[C@H]2C)cc1
  -7.2	0.0	-2.0	i	2.2
C[C@H](CO)N1C[C@H](C)[C@H](CN(C)C(=O)Nc2ccccc2)OCCCC[C@H](C)Oc2ccc(NC(=O)C3CCCCC3)cc2C1=O
  -1.3	1.8	-0.7	i	-2.0
Cc1noc(C)c1S(=O)(=O)Nc1ccc2c(c1)C(=O)N([C@H](C)CO)C[C@@H](C)[C@H](CN(C)S(C)(=O)=O)O2
  8.5	-0.4	-3.3	i	-1.6
C[C@@H]1CN([C@@H](C)CO)C(=O)Cc2cc(NC(=O)CCC(F)(F)F)ccc2O[C@H]1CN(C)CC1CC1
  5.3	4.1	-2.9	i	-0.9
C[C@@H]1CCCCO[C@H](CN(C)C(=O)Nc2ccc3c(c2)OCO3)[C@H](C)CN([C@@H](C)CO)C(=O)c2cc(NC(=O)C3CCCCC3)ccc2O1
  1.0	0.2	3.2	i	-0.7
CCNC(=O)C[C@H]1C=C[C@H](NC(=O)C2CCOCC2)[C@@H](CO)O1
  10.9	0.9	2.6	i	-3.0
CC(C)NC(=O)Nc1cccc2c1O[C@@H](CN(C)C(=O)Nc1ccc(C(F)(F)F)cc1)[C@H](C)CN([C@H](C)CO)C2=O
  -17.7	-8.1	-1.2	i	-2.7
CCCCCCCCN1C(=O)[C@H](CC(=O)NCc2ccc(C)o2)C[C@@]2(C(=O)OCC)CCC=C12
  9.3	15.1	-3.8	i	-3.9
CN1C(=O)c2cc(NC(=O)c3ccc(Cl)cc3)ccc2OC[C@H]2O[C@H](CC(=O)NCc3cccc(F)c3)CC[C@@H]21
  -9.4	5.4	0.1	i	0.4
O=C(CC(F)(F)F)N1C[C@@H]2[C@H](c3ccccc31)[C@H](CO)N2C(=O)Cc1ccccc1
  4.1	-0.2	-2.3	i	-0.9
CC(C)NC(=O)Nc1ccc2c(c1)C(=O)N([C@H](C)CO)C[C@H](C)[C@H](CN(C)Cc1ccc(Oc3ccccc3)cc1)O2
  -52.1	-14.4	-1.0	i	33.0
O=C(C[C@H]1CC[C@@H]2[C@H](COC[C@H](O)CN2Cc2ccc(Cl)cc2)O1)NCc1ccccc1Cl
  -74.3	-45.3	2.3	i	-3.3
O=C(Nc1ccc(F)cc1)N1CCCCN2[C@@H](CO)[C@@H](c3ccc(C#Cc4ccccn4)cc3)[C@@H]2C1
  10.1	1.3	9.7	i	19.5
